Marburg entry inh: blocks Marburg virus binding to or entry into cells; Marburg virus pseudotyped entry inhibition, cell reporter; control for the full effect not named in the record; about a third of the inactives were read at about 46 µM; Potency, µM (highest dose often 37.8 µM), inactives show at the top dose activity change, negative = inhibition, most hits filed as inhibitors; 1.8% of 300,000 active; active = well fitted inhibition curve with a large enough effect; inconclusive = small, poorly fitted or top-dose-only effect, or effect the other way; inactive = flat fitted curve, though single readings scatter; tested in HEK293 cells; about a fifth of its hits are not listed in these tables; note: % is set by controls: 0 for no effect and ±100 for the full control effect; luciferase read-out
Cruzain inh noDet: inhibitors of Trypanosoma cruzi cruzain without detergent. P25779. purified cruzain, Z-FR-AMC fluorescence, no detergent. Potency, µM, for inactives: max response, negative = inhibition, most hits filed as inhibitors. 2.3% of 200,000 active. AID 1476;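 note: plate controls were enzyme without inhibitor for no effect and buffer without enzyme for full effect; nearly all actives have a fitted effect of over 40% in size; top concentration of the series not given in the record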
Target sequence (P25779 123-467 limits assumed): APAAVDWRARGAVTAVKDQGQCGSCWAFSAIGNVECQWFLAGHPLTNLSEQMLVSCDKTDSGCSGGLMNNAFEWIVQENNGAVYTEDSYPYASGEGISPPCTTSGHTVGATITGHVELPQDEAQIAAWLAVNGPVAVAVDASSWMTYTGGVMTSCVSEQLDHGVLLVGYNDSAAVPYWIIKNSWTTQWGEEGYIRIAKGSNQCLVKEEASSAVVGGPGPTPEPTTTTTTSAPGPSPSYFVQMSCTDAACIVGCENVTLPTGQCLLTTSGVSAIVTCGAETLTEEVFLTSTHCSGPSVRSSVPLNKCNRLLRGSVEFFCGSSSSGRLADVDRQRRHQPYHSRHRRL
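Purified cruzain at 1.5 nM, pre-incubated 15 min with compound at room temperature in 100 mM sodium acetate pH 5.5, 5 mM DTT, 0.00005% Triton X-100. Reaction started with 2 uM Z-FR-AMC; AMC fluorescence increase over 60 s gives rate.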
NS1 inh: influenza NS1 inhibition. AID 2326. S. cerevisiae slowed by influenza A NS1, growth recovery by OD600. Potency, µM (top dose mostly 46.1 µM), without a hit: at the highest dose activity, positive = more growth. 0.4% of 270,000 active; active means well fitted rising curve with a large enough effect; inconclusive means small, poorly fitted or top-dose-only effect; inactive means no such curve, though single readings can be large or run the other way; note: nearly all actives have a fitted effect of over 50% in size
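In this qHTS, NS1 from influenza A is expressed in budding yeast, where it slows growth. Cells are switched from glucose to 2% galactose medium (pH 6.0, -URA), treated with compound, and growth recovery is read at OD600.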
RE007 growth inh: less growth of the S. pombe RE007 Vpr strain; Potency, µM (series often up to 92.2 µM), for the others: top-dose activity change, negative = less growth; 0.21% of 360,000 active; S. pombe RE007 Vpr strain, BacTiter-Glo ATP luminescence, 24 h; control for the full effect not named in the record; active = well fitted falling curve with a large enough effect; inconclusive = small, poorly fitted or top-dose-only effect; inactive = no such curve, though single readings can be large or run the other way;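 note: % is set by controls: 0 for no effect and ±100 for the full control effect; nearly all actives have a fitted effect of over 50% in size; the assay follows cell death caused by Vpr and the record does not say whether a fall means rescue or toxicity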
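Fission yeast strain RE007, carrying one chromosomally integrated HIV-1 vpr copy, was seeded at OD 0.01 in PMG+AL medium with 23 nL pinned compound. After 24 h at 30 °C and 99% humidity, viability was read by BacTiter-Glo luminescence.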
SARS PLP yeast: inhibitors of SARS-CoV papain-like protease in yeast; S. cerevisiae expressing SARS-CoV PLpro, growth rescue; control for the full effect not named in the record; Potency, µM (doses to about 32.9 µM), for the others: at the highest dose activity, positive = growth rescue; 0.19% of 330,000 active; AID 485353; active means well fitted rising curve with a large enough effect; inconclusive means small, poorly fitted or top-dose-only effect; inactive means no such curve, though single readings can be large or run the other way; note: 0% is about no effect; nearly all actives have a fitted effect of over 55% in size; growth read by luminescence after 48 h
StopGo reporter: FMDV 2A StopGo reporter, luciferase signal; human cells with a luciferase reporter of 2A StopGo recoding; control for the full effect not named in the record; AID 1159524; 1.2% of 410,000 active; Potency, µM (top dose mostly 57.9 µM), for the others: at the top dose signal change, negative = less light; active = well fitted falling curve with a large enough effect; inconclusive = small, poorly fitted or top-dose-only effect; inactive = no such curve, though single readings can be large or run the other way; tested in HEK293T cells; note: % is set by controls: 0 for no effect and ±100 for the full control effect; nearly all actives have a fitted effect of over 45% in size; luciferase light after 4 h
Lassa entry inh: blocks Lassa virus binding to or entry into cells; Lassa virus pseudotype entry inhibition, cell reporter; control for the full effect not named in the record; Potency, µM (titrated, usually from 37.9 µM), inactives show at the highest dose activity change, negative = inhibition, most hits filed as inhibitors; 1.2% of 300,000 active; active means well fitted inhibition curve with a large enough effect; inconclusive means small, poorly fitted or top-dose-only effect, or effect the other way; inactive means flat fitted curve, though single readings scatter; tested in HEK293 cells; note: % is set by controls: 0 for no effect and ±100 for the full control effect; nearly all actives have a fitted effect of over 50% in size; luciferase read-out
Cruzain Triton: inhibitors of Trypanosoma cruzi cruzain with detergent. P25779. purified cruzain, Z-FR-AMC fluorescence, 0.01% Triton. Potency, µM, for the others: max response, negative = inhibition, usual class: inhibitors. 0.43% of 200,000 active;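 note: plate controls were neutral wells for no effect and buffer without enzyme for full effect; nearly all actives have a fitted effect of over 40% in size; top concentration of the series not given in the record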
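Detergent-containing run (0.01% Triton X-100) in acetate buffer pH 5.5 with 5 mM DTT: enzyme at 1.5 nM final, 15 min compound preincubation at room temperature, then 2 uM Z-FR-AMC substrate. Activity taken as 60 s fluorescence increase at 360/450 nm.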
* marks the source's active call; other numbers are inactive results; ? = inconclusive; · = not tested or not shown; & = joins results of further samples; [ ] = remark or other dose. Unless noted, calls come from the whole dose curve; as a rule, active = well fitted curve in the direction sought with a large enough effect; inconclusive = small, poorly fitted or top-dose-only effect, or another doubt; inactive = no such curve, though single readings can be large; an effect the other way counts as inactive or inconclusive. Potency is the fitted concentration of half-maximal effect.

SMILES	Marburg entry inh	Cruzain inh noDet	NS1 inh	RE007 growth inh	SARS PLP yeast	StopGo reporter	Lassa entry inh	Cruzain Triton
O=C(NC1CCS(=O)(=O)C1)/C(=C/c1ccc(Cl)cc1)NC(=O)c1ccccc1 (stereo not given)	-3.2%	-2.2%	20.5%	29.6%	6.8%	-9.5%	1.5%	-6.4%
CC1CCCCN1Cc1nc2ccccc2c(=O)[nH]1 (stereo not given)	20.0%	-0.6%	0.9%	-6.9%	-0.7%	46.8%[activator]	?	4.5%
O=C1[C@@H]2C(c3ccccc3Cl)=NO[C@@H]2C(=O)N1Cc1ccccc1	-8.5%[46.1 µM]	-12.6%	-66.7%	-1.3%	-4.3%	1.9%	-1.2%	0.2%
COc1ccc(CCNS(=O)(=O)c2ccc3c(c2)CC(C)N3C(C)=O)cc1OC (stereo not given)	-23.7%[46.1 µM]	-5.9%	-3.0%	-7.3%	-5.6%	-14.8%	8.8%	-1.3%
Cc1ccc(NC2=NC(c3ccc(C)cc3)n3c(nc(C)cc3=O)N2)cc1 (stereo not given)	-29.5%	-14.9%	-23.4%	-15.8%	-1.1%	0.0%	19.3%	-2.5%
CCNC(=S)N1CCN(c2ncccn2)CC1	10.6%	-11.2%	2.0%	9.3%	2.0%	-22.8%	3.8%	-1.5%
Cc1ccc(NC(=O)COC(=O)CCc2c[nH]c(=O)[nH]2)cc1	2.3%	0.2%	-5.9%	10.9%	7.1%	-14.2%	0.4%	-3.6%
Cc1oncc1C(=O)Nc1cccc(C#N)c1	0.0%	·	4.3%	1.9%	-4.3%	-0.5%	16.5%	·
CCCOc1ccc(NC(=O)CC2C(=O)N(c3ccc(OC)cc3)C(=O)N2CCc2ccncc2)cc1 (stereo not given)	·	28.9%	·	·	·	6.9%	?	-5.6%
Cc1ccc(NC(=O)C2CC2C)cc1S(=O)(=O)N1CCOCC1 (stereo not given)	1.2%	·	·	-4.3%	-14.7%	40.0%[activator]	-43.6%	·
O=c1c2cc(Cl)ccc2nc(-c2ccccc2)n1O	2.1%[46.1 µM]	·	·	?	-11.8%	-3.9%	-10.0%	·
NS(=O)(=O)c1ccc(CCNC(=O)CCCCCn2c(=O)[nH]c3ccccc3c2=O)cc1	·	-15.6%	·	·	·	?	27.3%[46.1 µM]	2.0%
O=C(Nn1cnnc1)C1CCCN1S(=O)(=O)c1ccc(F)cc1 (stereo not given)	16.7%	-4.5%	2.4%	6.9%	-0.8%	·	10.5%	6.1%
CC(C)(C)NS(=O)(=O)c1cccc(S(=O)(=O)c2cccc(S(=O)(=O)NC(C)(C)C)c2)c1	?	-10.8%	-8.7%	-8.6%	1.6%	?	-48.3%[14.3 µM]	-5.2%
COc1ccc(NC(=O)N2c3ccccc3C(C)=CC2(C)C)cc1	21.6%[46.1 µM]	·	·	1.1%	-0.8%	-26.2%	6.1%	·
CCCn1c(=S)[nH]c2cc(C(=O)N3CCN(C4CCCCC4)CC3)ccc2c1=O	6.7%[46.1 µM]	·	-9.2%	-18.2%	1.0%	0.1%	-0.4%[46.1 µM]	·
COC(=O)CNc1nc(-c2ccncc2)nc2ccccc12	-28.4%	-7.0%	-110.3%	0.7%	-23.2%	-21.6%	?	6.3%
COc1cc(/C=N/NC(=O)c2cc(C3CC3)[nH]n2)cc(OC)c1OC	·	·	5.3%	-7.7%	-9.0%	-11.7%	·	·
COc1ccc(/C=N\NC(=O)c2ccccc2F)cc1COc1ccc(F)cc1F	?	·	-40.5%	-10.5%	18.6%	-1.9%	?	·
Cc1ccc(C(=O)CCC(=O)NN2C(=O)NC3(CCCCC3)C2=O)cc1	8.1%[46.1 µM]	·	·	3.5%	3.8%	-0.1%	-6.0%	·
O=c1c2c(C(F)(F)F)cc(C(F)(F)F)nc2[nH]n1-c1ccccc1	-0.8%	-2.6%	-56.2%	-10.2%	-12.0%	?	-0.8%	-3.5%
COc1cccc(-n2c(SCC(=O)N3CCCc4ccccc43)nc3c([nH]c4ccccc43)c2=O)c1	·	3.1%	·	·	·	-23.5%	?	-2.0%
FC(F)(F)C1=CC(c2ccccc2)=NCCN1	?	2.1%	16.5%	-1.7%	7.6%	-0.9%	-6.0%	-1.4%
CCN1CCN(C(=O)C2CCN(Cc3cc(Cl)ccc3O)CC2)CC1	?	5.0%	6.1%	-2.9%	-2.4%	·	?	-0.4%
CC(=O)N1c2ccc(S(=O)(=O)N3CCCC(C(=O)NCc4ccccc4)C3)cc2CC1C (stereo not given)	·	·	-13.8%	-6.3%	-0.7%	?	·	·

More entries follow.
SMILES	Marburg entry inh	Cruzain inh noDet	NS1 inh	RE007 growth inh	SARS PLP yeast	StopGo reporter	Lassa entry inh	Cruzain Triton
CCS(=O)(=O)c1ccc2oc(SCC(=O)N3c4ccccc4CC3C)nc2c1 (stereo not given)	?	2.6%	-0.2%	14.0%	-9.8%	?	9.7%	-1.1%
O=C(COc1ccc(Br)cc1F)NCC1(N2CCCCC2)CCCCC1	10µM*	·	·	1.2%	2.7%	-0.7%	17.5%[46.1 µM]	·
Cc1cccc(C)c1NC(=S)N1CCCN(C)CC1	6.1%[46.1 µM]	·	0.2%	-7.0%	-5.0%	0.7%	11.0%	·
COc1ccc2oc(C(=O)OCC(=O)Nc3cc(S(=O)(=O)N4CCOCC4)ccc3OC)c(C)c2c1	-0.2%	·	·	-16.3%	0.0%	29.8%	4.4%	·
COCc1[nH]nc2c1C(c1c(F)cccc1Cl)C(C#N)=C(N)O2 (stereo not given)	2.1%	-5.7%	12.2%	1.4%	1.7%	-12.2%	-10.1%	0.1%
CS(=O)(=O)c1ccc(Cl)c(NC(=O)COC(=O)c2ccc(-n3cnnn3)cc2)c1	-7.3%	·	·	-5.6%	-0.6%	-23.1%	-27.2%	·
Cc1cc(C)c(S(=O)(=O)/N=C2\C=C(Nc3ccc(C(=O)O)cc3)C(=O)c3ccccc32)c(C)c1	5.62µM*	·	-12.1%	-16.7%	-11.7%	?	?	·
Cc1ccccc1CN(CC1CCC(C(=O)O)CC1)C(=S)Nc1ccccc1F (stereo not given)	-0.5%[46.1 µM]	·	·	-6.9%	3.0%	-3.8%	-2.8%[46.1 µM]	·
Cn1c(=O)n(Cc2ccc(Cl)cc2)c(=O)c2c1nc1n2CCN1Cc1ccco1	-22.8%	?	-29.3%	2.6%	7.5%	?	?	-1.4%
CCCNC(=O)c1ccc2c(c1)N=C(CCC)c1ccccc1S2	?	0.9%	·	·	·	-14.6%	-17.0%[46.1 µM]	-8.4%
Cc1cn(C)c(CC(=O)Nc2cccc(Cl)c2C)c1C(=O)O	·	-5.9%	·	·	·	-5.9%	6.5%[46.1 µM]	0.3%
Cn1c(SCc2n[nH]c(=S)o2)nnc1-c1ccccc1	?	-2.5%	24.1%	-17.1%	6.1%	-8.0%	1.9%	-2.1%
CCOC(=O)c1cccnc1SCC(=O)NCc1ccccc1	21.6%	6.3%	-7.1%	-3.0%	10.2%	1.6%	1.2%	1.8%
COC(=O)CC1C(=O)NCCN1C(=O)Nc1cccc(Cl)c1 (stereo not given)	-4.0%[46.1 µM]	·	3.9%	-23.1%	1.1%	8.0%	·	·
NC(=O)C1CCN(C(=O)c2ccc3ccccc3c2)CC1	6.9%[46.1 µM]	·	0.7%	6.7%	0.3%	36.7%[activator]	12.0%[46.1 µM]	·
O=C1CCC(=O)N1c1nc2n(n1)C(c1ccccc1)C=C(c1ccc(Br)cc1)N2 (stereo not given)	-0.5%&5.5%	?	-10.9%	-0.7%	7.4%	-8.5%	7.8%	-3.6%
CCOC(=O)c1oc2c(c1C)-c1nn(Cc3c(F)cccc3Cl)cc1CC2	7.8%[46.1 µM]	6.5%	·	·	·	-8.8%	1.0%[46.1 µM]	-3.4%
N/C(=N\OC(=O)/C=C/c1ccccc1)c1ccc(Br)cc1	?	·	-3.6%	-10.2%	0.2%	-6.1%	3.2%	·
CCOC(=O)c1ccccc1NS(=O)(=O)c1ccccc1	-2.8%	-8.9%	-30.1%	13.3%	-5.9%	17.9%	46.4%[14.3 µM]	-11.9%
Cc1ccc(S(=O)(=O)N2CCCCC2)cc1C(=O)N(C)CC(=O)Nc1ccc(Cl)c(C(F)(F)F)c1	·	·	10µM*	-0.4%	-1.6%	?	·	·
CN(CC(=O)NCc1ccc(F)cc1)S(=O)(=O)c1ccc(Br)s1	-0.2%[46.1 µM]	·	12.8%	1.1%	-2.4%	-0.3%	-14.1%	·
CCOC(=O)CCSc1nc(C)c2cc(C)ccc2n1	8.4%	-7.1%	-78.9%	-12.0%	-10.9%	·	?	-3.6%
CCOC(=O)CSc1cc(CSc2ccccc2)nc(-c2ccccc2)n1	11.2%	-26.6%	-6.3%	-4.0%	-1.7%	-14.0%	6.3%	0.2%
Cc1ccccc1NC(=O)c1sc2nc3c(cc2c1N)CN(Cc1ccccc1)CC3	-18.2%[46.1 µM]	-4.0%	·	·	·	-57.9%	-21.8%[46.1 µM]	-4.9%
CCCCNS(=O)(=O)c1ccc(NC(=O)C(Sc2ccccc2)c2ccccc2)cc1 (stereo not given)	?	3.9%	-6.6%	2.0%	12.0%	0.0%	9.2µM*	-2.2%

Carrying on:
SMILES	Marburg entry inh	Cruzain inh noDet	NS1 inh	RE007 growth inh	SARS PLP yeast	StopGo reporter	Lassa entry inh	Cruzain Triton
C/C(=N\NC(=O)c1ccc(COc2ccccc2)cc1)c1ccncc1	28.1%[46.1 µM]	·	·	20.4%	-2.7%	-6.1%	10.9%	·
COc1cc2c(cc1OC)CN(CC(=O)Nc1ccccc1SC)CC2	-36.0%[46.1 µM]	·	-6.5%	17.0%	-1.7%	?	-3.5%[46.1 µM]	·
CN1CCN(c2ncnc3c2cnn3-c2cccc(Cl)c2)CC1	·	-0.6%	·	·	·	-2.3%	?	0.9%
O=C(NCc1cccn1Cc1ccccc1)Nc1cccc(C(F)(F)F)c1	·	-6.8%	·	·	·	-21.7%	-0.8%[46.1 µM]	-10.3%
Oc1ccc(-c2csc(Nc3ccccn3)n2)c(O)c1	·	·	-60.7%	-14.8%	-16.1%	4.1%	·	·
Cc1ccccc1NC(=O)/C(C#N)=C\c1cc(C)n(-c2ccc(C(=O)O)cc2)c1C	·	·	-40.5%	1.9%	-4.6%	-11.7%	·	·
